Vaccinia stage: Vaccinia orthopox stage-specific inhibition | Vaccinia-infected cells, mCherry/Venus stage reporter fluorescence; stronger effect = lower value; some inactives read as strong as hits | activity change (mCherry), % (no concentration beside the values) | hit rate 0.01% among 89,000;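 active = mCherry past -33% and 40 or more points under the early reporter, replicates agreeing; inconclusive = past -33% without that gap or agreement; tested in A549 cells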;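 also: scaled between vehicle wells and reference inhibitor wells; 23 nL library stock went into each well; one replicate is shown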
Vaccinia stage Venus: also measured in Vaccinia stage; calls as there; activity change (Venus), %; measured here: Venus reporter, other viral stage;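 negative = less Venus signal; first of two replicates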
* marks the source's active call; other numbers are inactive results; u = inconclusive; x = no result given.

Values in the order – Vaccinia stage | Vaccinia stage Venus
> CO[C@@H]1CN(C)C(=O)c2cc(NS(C)(=O)=O)ccc2OC[C@@H](C)N(C(=O)C2CCC2)C[C@H]1C
  11.9 | 8.5
> COc1cccc(S(=O)(=O)Nc2ccc3c(c2)[C@H]2C[C@H](CC(=O)NCc4cccc(F)c4)O[C@@H](CO)[C@H]2O3)c1
  -12.2 | -7.5
> C[C@@H]1CN([C@H](C)CO)C(=O)c2c(c3ccccc3n2C)-c2ccccc2CO[C@H]1CN(C)C(=O)Nc1ccnc(N2CCOCC2)c1
  -20.9 | -22.9
> O=C(Cc1cccnc1)N1CC[C@H]2[C@H](CO)Nc3ccc(C#Cc4cccc(F)c4)cc3[C@H]21
  -23.3 | -17.9
> C[C@H](CO)N1C[C@H](C)[C@@H](CN(C)S(=O)(=O)c2ccccc2)Oc2cc(C#Cc3ccncc3)ccc2S1(=O)=O
  -28.9 | -19.1
> O=C(NCC[C@@H]1CC[C@H](NS(=O)(=O)Cc2ccccc2)[C@H](CO)O1)C1CCOCC1
  7.6 | 0.4
> O=C(C[C@H]1C[C@@H]2c3cc(NC(=O)c4cccnc4)ccc3O[C@@H]2[C@@H](CO)O1)NCc1cc(F)ccc1F
  3.9 | 5.5
> COc1ccc(NC(=O)Nc2ccc3c(c2)C(=O)N([C@@H](C)CO)C[C@H](C)[C@H](CN(C)S(=O)(=O)c2cccs2)O3)cc1
  -6.5 | 1.5
> COc1ccc(S(=O)(=O)N(C)C[C@H]2OCCCC[C@H](C)Oc3ccc(NC(=O)C4CCCCC4)cc3C(=O)N([C@@H](C)CO)C[C@H]2C)cc1
  -5.4 | 1.2
> C[C@H]1CN([C@@H](C)CO)C(=O)c2cc(NS(=O)(=O)c3ccc(F)cc3)ccc2O[C@H]1CN(C)S(=O)(=O)c1cccs1
  3.1 | -1.7
> CCC(=O)N1C[C@@H](O)COC[C@H]2O[C@@H](CC(=O)NCC3CCCCC3)CC[C@@H]21
  2.5 | 4.6
> Cc1ccccc1-c1ccc([C@H]2[C@@H](CO)N3CCCCN(Cc4cccnc4)C[C@H]23)cc1
  -32.5 | -48.8
> C/C=C/c1ccc2c(c1)O[C@H](CN(C)C(=O)NCCC)[C@@H](C)CN([C@@H](C)CO)S2(=O)=O
  -8.9 | -3.8
> O=C(C[C@@H]1C=C[C@@H](NC(=O)C2CCOCC2)[C@@H](CO)O1)NCC1CC1
  18.9 | 28.1
> Cc1noc(C)c1S(=O)(=O)N(C)C[C@H]1OCCCC[C@H](C)Oc2ccc(NS(=O)(=O)c3cccs3)cc2C(=O)N([C@@H](C)CO)C[C@H]1C
  -23.6 | -14.7
> O=C(C[C@H]1CC[C@@H]2[C@H](COC[C@@H](O)CN2S(=O)(=O)c2cccc(Cl)c2)O1)Nc1ccccc1
  6.5 | 12.4
> CCC(=O)N1CCC2(CC1)CN(C(C)=O)[C@@H](CO)c1[nH]c3cc(OC)ccc3c12
  12.4 | 5.1
> COc1ccc(NC(=O)Nc2ccc3c(c2)[C@H]2C[C@H](CC(=O)N4CCCCC4)O[C@H](CO)[C@H]2O3)cc1
  10.6 | 7.9
> COc1cccc(-c2ccc([C@H]3[C@H]4CN(C(=O)c5cccnc5)CC(=O)N4[C@H]3CO)cc2)c1
  -19.1 | -18.0
> Cc1noc(C)c1NC(=O)N(C)C[C@H]1Oc2c(NC(=O)CCCCCC(=O)Nc3ccccc3N)cccc2C(=O)N([C@@H](C)CO)C[C@@H]1C
  2.8 | 10.8

Three of these compounds in a different format.
> COc1cccc(S(=O)(=O)Nc2ccc3c(c2)[C@H]2C[C@H](CC(=O)NCc4cccc(F)c4)O[C@@H](CO)[C@H]2O3)c1
  Vaccinia stage: -12.2
  Vaccinia stage Venus: -7.5

> O=C(C[C@H]1CC[C@@H]2[C@H](COC[C@@H](O)CN2S(=O)(=O)c2cccc(Cl)c2)O1)Nc1ccccc1
  Vaccinia stage: 6.5
  Vaccinia stage Venus: 12.4

> O=C(C[C@H]1C[C@@H]2c3cc(NC(=O)c4cccnc4)ccc3O[C@@H]2[C@@H](CO)O1)NCc1cc(F)ccc1F
  Vaccinia stage: 3.9
  Vaccinia stage Venus: 5.5

Carrying on:
Values in the order – Vaccinia stage | Vaccinia stage Venus
> C[C@H](CO)N1C[C@H](C)[C@H](CN(C)C(=O)Nc2ccccc2)Oc2c(cccc2N(C)C)C1=O
  9.7 | 2.9
> O=C(C[C@@H]1C[C@H]2c3cc(NC(=O)NC4CCCC4)ccc3O[C@H]2[C@H](CO)O1)NC1CCCCC1
  9.5 | 8.8
> CC(C)NC(=O)N(C)C[C@@H]1OCCCC[C@H](C)Oc2ccc(NS(=O)(=O)c3ccc(Cl)cc3)cc2C(=O)N([C@@H](C)CO)C[C@@H]1C
  -11.5 | -2.5
> CC(C)NC(=O)N(C)C[C@@H]1Oc2ccc(NC(=O)Nc3ccc(F)cc3)cc2C(=O)N([C@@H](C)CO)C[C@@H]1C
  7.4 | 2.2
> C[C@@H]1CN([C@@H](C)CO)C(=O)c2cc(-c3ccc(C(=O)N(C)C)cc3)cnc2O[C@H]1CN(C)C(=O)c1cccnc1
  13.1 | 9.3
> O=C(Nc1ccc2c(c1)[C@H]1C[C@H](CC(=O)N3CCc4ccccc4C3)O[C@@H](CO)[C@H]1O2)C1CCOCC1
  1.0 | 1.5
> O=C(C[C@@H]1CC[C@H]2[C@@H](COC[C@H](O)CN2C(=O)Nc2ccc(Cl)cc2)O1)N1CCCCC1
  2.1 | 6.9
> C[C@H]1CN([C@@H](C)CO)S(=O)(=O)c2ccc(-c3ccccc3F)cc2O[C@H]1CN(C)Cc1cccnc1
  u | x
> O=C(Nc1ccccc1F)N[C@H]1CC[C@@H](CCNS(=O)(=O)c2ccc(Cl)cc2)O[C@H]1CO
  -21.1 | -10.6
> C[C@@H]1CN([C@@H](C)CO)C(=O)c2cc(N(C)C)ccc2O[C@@H](C)CCCCO[C@@H]1CN(C)Cc1ccccc1
  -10.6 | -10.9
> CNC[C@@H]1Oc2c(cccc2N(C)C)C(=O)N([C@H](C)CO)C[C@H]1C
  -3.6 | 4.6
> COCC(=O)N1C[C@H](C)[C@H](OC)CN(C)C(=O)c2cc(NC(=O)c3cnccn3)ccc2OC[C@@H]1C
  4.7 | 11.5
> C[C@@H]1CN([C@H](C)CO)C(=O)c2cc(NC(=O)Cn3cnnn3)ccc2O[C@@H]1CN(C)S(=O)(=O)c1ccccc1
  8.8 | 2.1
> Cc1ccccc1-c1ccccc1[C@H]1[C@@H](CO)N(C(=O)c2ccc(F)cc2)[C@H]1C#N
  12.4 | 8.7
> C[C@H](NC(=O)C[C@H]1C[C@@H]2c3cc(NC(=O)C4CCC4)ccc3O[C@@H]2[C@@H](CO)O1)c1ccccc1
  17.1 | 8.5
> Cc1cc(C(=O)Nc2cccc3c2O[C@@H](CN(C)Cc2ccc(Oc4ccccc4)cc2)[C@@H](C)CN([C@H](C)CO)C3=O)n(C)n1
  -1.1 | -5.9
> CN1c2ccc(-c3ccc(C#N)cc3)cc2[C@@H]2[C@@H](CCN2S(=O)(=O)c2cccc(F)c2)[C@@H]1CO
  u | x
> CN1c2ccc(-c3ccc(F)cc3)cc2[C@H]2[C@H](CCN2S(=O)(=O)c2ccc(F)cc2)[C@@H]1CO
  u | x
> C[C@@H]1CN([C@H](C)CO)S(=O)(=O)c2ccc(-c3cccc(C#N)c3)cc2O[C@H]1CN(C)C(=O)Nc1ccccc1F
  -26.0 | -22.8
> COCC(=O)Nc1ccc2c(c1)C(=O)N(C)[C@@H]1CC[C@H](CC(=O)NCC3CC3)O[C@H]1CO2
  15.4 | 3.2

4 records picked at random from the list so far:
Values in the order – Vaccinia stage | Vaccinia stage Venus
> C[C@@H]1CN([C@@H](C)CO)C(=O)c2cc(-c3ccc(C(=O)N(C)C)cc3)cnc2O[C@H]1CN(C)C(=O)c1cccnc1
  13.1 | 9.3
> O=C(C[C@@H]1CC[C@H]2[C@@H](COC[C@H](O)CN2C(=O)Nc2ccc(Cl)cc2)O1)N1CCCCC1
  2.1 | 6.9
> O=C(Cc1cccnc1)N1CC[C@H]2[C@H](CO)Nc3ccc(C#Cc4cccc(F)c4)cc3[C@H]21
  -23.3 | -17.9
> CCC(=O)N1C[C@@H](O)COC[C@H]2O[C@@H](CC(=O)NCC3CCCCC3)CC[C@@H]21
  2.5 | 4.6

(list continues)
Values in the order – Vaccinia stage | Vaccinia stage Venus
> C[C@@H]1CN([C@H](C)CO)C(=O)c2cc(NC(=O)c3ccncc3)ccc2O[C@@H](C)CCCCO[C@H]1CN(C)C(=O)Nc1cccc2ccccc12
  0.2 | 7.1
> O=S(=O)(N[C@@H]1CC[C@@H](CCn2cc(C3(O)CCCC3)nn2)O[C@H]1CO)c1ccc(Cl)cc1
  8.7 | 6.4
> C[C@H]1CN([C@@H](C)CO)C(=O)Cc2cc(NS(=O)(=O)c3ccc(Cl)cc3)ccc2O[C@@H]1CN(C)Cc1ccncc1
  12.8 | 12.4
> C[C@H](NC(=O)C[C@@H]1CC[C@H]2[C@@H](COC[C@@H](O)CN2C(=O)Nc2cc(Cl)cc(Cl)c2)O1)c1ccccc1
  u | x
> C[C@H](CO)N1C[C@H](C)[C@@H](CN(C)S(=O)(=O)c2ccc(F)cc2)Oc2c(cccc2N(C)C)C1=O
  -13.5 | -20.0
> O=C(Cc1ccncc1)N1CC[C@@H]2[C@H]1c1cc(-c3ccccc3F)ccc1N[C@@H]2CO
  -27.1 | -11.9
> COc1ccc(CN(C)C[C@@H]2OCCCC[C@H](C)Oc3ccc(NC(=O)c4ccccc4)cc3C(=O)N([C@@H](C)CO)C[C@@H]2C)cc1
  u | x
> C[C@H](CO)N1C[C@H](C)[C@H](CN(C)S(C)(=O)=O)Oc2ncc(-c3cccc(C(F)(F)F)c3)cc2C1=O
  -1.8 | -0.5
> C/C=C/c1cnc2c(c1)C(=O)N([C@@H](C)CO)C[C@@H](C)[C@H](CN(C)C(=O)c1cccc(F)c1)O2
  16.1 | 13.1
> O=C(NCC[C@@H]1CC[C@H](NC(=O)c2ccccc2F)[C@H](CO)O1)c1cnccn1
  6.1 | 8.9
> CCCN(C)C[C@@H]1Oc2ncc(C#CCOC)cc2C(=O)N([C@@H](C)CO)C[C@@H]1C
  17.9 | 15.0
> C[C@H](CO)N1C[C@H](C)[C@@H](CN(C)CC2CC2)Oc2c(NC(=O)C3CCOCC3)cccc2C1=O
  4.8 | 8.3
> Cc1noc(C)c1S(=O)(=O)Nc1ccc2c(c1)C(=O)N([C@H](C)CO)C[C@H](C)[C@@H](CN(C)Cc1ccccc1)OCCCC[C@H](C)O2
  -13.8 | -4.2
> C[C@@H]1CN([C@@H](C)CO)C(=O)c2cc(NC(=O)Nc3ccccc3)ccc2O[C@@H](C)CCCCO[C@H]1CN(C)C
  8.1 | 0.6
> Cc1ccccc1S(=O)(=O)N(C)C[C@@H]1OCc2ccccc2-c2c(n(C)c3ccccc23)C(=O)N([C@@H](C)CO)C[C@@H]1C
  u | x
> COCC(=O)N1CCCCN2[C@H](CO)[C@H](c3ccc(-c4ccc(F)cc4)cc3)[C@@H]2C1
  3.8 | -0.4
> CO[C@H]1CC[C@H]2CCN(C)C(=O)[C@@H](C)[C@H](OC)CN(C)C(=O)c3cc(C#N)ccc3OC[C@H]1O2
  8.8 | 8.2
> COc1ccc2c3c([nH]c2c1)[C@H](CO)N(C(=O)Nc1cccc(F)c1)CC31CN(CC2CCOCC2)C1
  -29.7 | -28.4
> Cc1noc(C)c1NC(=O)N(C)C[C@@H]1Oc2cc(C#CCN(C)C)ccc2S(=O)(=O)N([C@H](C)CO)C[C@@H]1C
  13.6 | 10.2
> COC(=O)c1c(CC[C@@H](CO)NC(=O)N[C@@H](Cc2ccccc2)Cn2cc(-c3ccccc3)nn2)oc(C(=O)N2CCOCC2)c1C(=O)OC
  15.2 | 12.2
> CCNC(=O)Nc1ccc2c(c1)C(=O)N(C)[C@@H]1CC[C@H](CC(=O)NCc3ccc(F)cc3)O[C@H]1CO2
  3.1 | 4.0
> COc1ccccc1-c1ccc([C@@H]2[C@@H](CO)N3CCCCN(C(=O)NC4CCCC4)C[C@H]23)cc1
  u | x
> COCC(=O)Nc1ccc2c(c1)C(=O)N(C)C[C@@H](OC)[C@@H](C)CN(C(=O)c1ccccn1)[C@@H](C)CO2
  7.7 | 1.5
> CCS(=O)(=O)N1CC(=O)N2[C@H](CO)[C@@H](c3ccc(C#CC4CC4)cc3)[C@@H]2C1
  -27.4 | -12.4
> O=C(N[C@@H]1CC[C@@H](CCNS(=O)(=O)c2ccccc2)O[C@@H]1CO)c1cnccn1
  4.1 | 9.3
> COc1ccc(NC(=O)N2CC(=O)N3[C@H](CO)[C@H](c4ccc(C5=CCCC5)cc4)[C@@H]3C2)cc1
  -17.2 | -19.0
> COc1ccc(NC(=O)Nc2ccc3c(c2)C(=O)N([C@H](C)CO)C[C@H](C)[C@@H](CN(C)C(=O)Nc2cccc4ccccc24)O3)cc1
  7.5 | 16.6
> O=C(C1CC1)N1CC2(C1)[C@H](c1ccccc1)[C@@H](CO)N2S(=O)(=O)c1ccccc1
  11.3 | 13.8
> CC(C)NC(=O)Nc1ccc2c(c1)C(=O)N([C@H](C)CO)C[C@@H](C)[C@H](CN(C)S(=O)(=O)c1cn(C)cn1)OCCCC[C@H](C)O2
  18.6 | 18.7
> COC(=O)[C@@H]1[C@@H](CO)[C@@H]2Cn3c(ccc(-c4ccccc4OC)c3=O)[C@@H]2N1CC1CCCCC1
  -17.2 | -12.5
> C[C@H](CO)N1C[C@H](C)[C@H](CN(C)C(=O)NC2CCCCC2)Oc2cc(/C=C/c3ccccc3)ccc2S1(=O)=O
  -2.8 | -6.4
> C[C@H](CO)N1C[C@H](C)[C@H](CN(C)C(=O)c2ccccc2)Oc2ncc(C#C[C@@H](C)O)cc2C1=O
  9.8 | 2.8
> CCCC#Cc1ccc([C@H]2[C@@H](CO)N(C(=O)C3CC3)[C@H]2C#N)cc1
  -3.6 | 3.8
> CO[C@@H]1CN(C)C(=O)c2ccc(NC(C)=O)cc2OC[C@H](C)N(Cc2ccccc2F)C[C@H]1C
  -3.9 | 3.2
> CC(C)NC(=O)Nc1ccc2c(c1)C(=O)N([C@H](C)CO)C[C@H](C)[C@@H](CN(C)C(=O)NC(C)C)O2
  -3.9 | 3.9

Source: PubChem BioAssay

Only part of the results is shown, so the mix of outcomes need not match the whole.
